Bst PK mod = pyruvate kinase (B. stearothermophilus) modulation. partly purified Bacillus stearothermophilus pyruvate kinase, luminescence ATP production; ribose 5-phosphate activator present at AC10. actives 1.2% (n = 51,000). Potency, µM; in the data active means potency below about 11 µM; inconclusive means mostly about 12 µM to 25 µM; inactive means weaker than that;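 the screen sought inhibitors and activators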;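 also: potency is read from the fitted curve at half-maximal effect; scaled between full activation by ribose 5 phosphate and full inhibition by luteolin; about four in five hits inhibit and the cells do not say which; series up to 57 µM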
TsaE inh = inhibitors of E. coli YjeE (TsaE); Potency, µM; P0AF67; purified YjeE, fluorescence polarisation of a bound ADP probe; actives 0.05% (n = 71,000); active = well fitted falling curve; inconclusive = weaker or top-dose-only fall, or a rising curve; inactive = flat or poorly fitted curve;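 also: top concentration of the series not given in the record; excess ADP was the control for the full effect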
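Purified YjeE (10 uM) with BODIPY Texas Red-labeled ADP probe (2 uM); compounds pin-transferred, 15 min at room temperature. Binding inhibition read as decreased fluorescence polarization; ADP titration as control.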
The depositor's hits bear a star; i = inactive; nt = no result given. Some of the compounds tested; the hit share may differ from the screen's.

TsaE inh,Bst PK mod,smiles
i,>57,COc1ccc2nc(NC3=NCN(CC4CCCO4)CN3)nc(C)c2c1 (stereo not drawn)
i,>57,COCCCNC(=O)C1CCN(C(=O)c2cc3sccc3n2Cc2ccc(F)cc2)CC1
nt,>26,COC(=O)CN(c1cc(OC)ccc1OC)S(=O)(=O)c1ccc(OC)c(OC)c1
i,nt,CCc1ccc(-c2nc(CS(=O)CC(=O)NCc3cccnc3)c(C)o2)cc1 (stereo not drawn)
i,>57,CCOc1cc(C2c3c(n[nH]c3C)C(=O)N2c2ccc(C)cc2)ccc1O (stereo not drawn)
i,nt,Cn1c(=O)c2c(nc(SCC(=O)Nc3ccccc3)n2C)n(C)c1=O
nt,1.5*,CCc1ccc(-c2cn3nc(C)c(C)nc3n2)cc1
i,nt,Cc1[nH]nc2c1C(C1CC=CCC1)C(C#N)=C(N)O2 (stereo not drawn)
i,>57,COc1ccc(C(C)=O)c(Oc2nc(CN3CCOCC3)nc3scc(-c4cccs4)c23)c1
i,nt,Cc1cc(OCc2nc(N)nc(N)c2-c2ccc(Cl)c(Cl)c2)ccc1[N+](=O)[O-]
i,nt,CCOC(=O)c1c(C)oc2cc(Br)c(OC(C)C(=O)OCC)cc12 (stereo not drawn)
i,>57,Cn1c(SCC(=O)N2CCN(c3cccc(Cl)c3)CC2)nnc1-c1ccncc1
i,>57,O=C(CSc1nnnn1-c1ccccc1)Nc1nc(-c2ccccc2)ns1
i,>57,Cc1nc(CCNS(=O)(=O)c2cccs2)cs1
i,>57,CC1=C(C(=O)NCc2ccccc2)C(c2cccs2)n2ncnc2N1 (stereo not drawn)
i,>57,O=C(C1CCCN(Cc2ccccc2Br)C1)N1CCCCC1 (stereo not drawn)
i,>57,O=S(=O)(Cc1ccccc1)N1CCCC(c2nc(-c3ccc(F)cc3)no2)C1 (stereo not drawn)
i,nt,O=C1c2ccccc2NC(c2ccco2)N1O (stereo not drawn)
i,>57,Cc1ccc2c(c1)[nH]c1c(=O)n(CCN3CCNCC3)cnc12
i,nt,COc1ccc(CNc2ncnc3ccc(-c4ccc(C(=O)N(C)C)cc4)cc23)c(OC)c1
i,>57,O=C(C1CCCO1)N1CCC(c2nc3ccccc3[nH]2)CC1 (stereo not drawn)
i,>57,Cc1cc2n(n1)C(c1sccc1C)Nc1c(C)cccc1-2 (stereo not drawn)
i,nt,Cc1nc2cncnc2n(Cc2ccccc2Cl)c1=O
i,nt,Cc1noc(C)c1-c1nccc(NCc2cccs2)n1
i,>57,Cc1c(C(=O)N2CCN(C)CC2)oc2c1C(=O)CC(C)(C)C2
i,>57,O=C1CC(c2ccco2)CC(O)=C1C=NCC1NCCc2ccccc21 (stereo not drawn)
i,>57,O=C(Cn1nnc2ccccc2c1=O)Nc1ccc2c(c1)CCC2
i,nt,N#Cc1cccc(NC(=O)N2CCCC3(CCN(C(=O)c4cc(C(F)(F)F)cc(C(F)(F)F)c4)CC3)C2)c1
i,>57,CCCC(C)(C)NC(=O)CCCCC(=O)NC(C)(C)CCC
i,>57,O=CN1CCC(=O)N(Cc2ccccc2)c2ccccc21
i,nt,COC(=O)C1=C(C)n2cnnc2NC1c1ccc(Cl)cc1 (stereo not drawn)
i,>57,COc1ccc(N2CC(C(=O)Nc3ccc(N4CCOCC4)cc3)CC2=O)cc1 (stereo not drawn)
i,>57,COc1cccc(-n2nnc3c(=O)n(CC(=O)N4CCCCC4)cnc32)c1
i,>57,COc1cc(OC)c(C(=O)Nc2ncn[nH]2)cc1OC
i,>57,O=C(c1ccc2c(=O)n(CC3CCCO3)c(=S)[nH]c2c1)N1CCN(c2ccccc2)CC1 (stereo not drawn)
i,>57,CCOC(=O)CNC(=O)CSc1nnc(Cn2cnc3ccccc32)n1C
i,>57,COc1ccc(C(=O)NC(C)c2nnc(SCC(=O)Nc3nc4ccccc4s3)n2C)cc1 (stereo not drawn)
i,>57,CC(C)C(c1nnnn1Cc1ccc(F)cc1)N1CCSCC1 (stereo not drawn)
i,>57,Cc1cccc(NC(=O)CCN2CCN(C/C=C/c3ccccc3)CC2)c1
i,nt,CCOC(=O)CSc1nnc(-c2ccc(Cl)cc2Cl)o1
i,nt,O=C(NCc1cccs1)c1cnc2sccn2c1=O
i,>57,COc1ccccc1NC(=O)c1nnn(CC(=O)Nc2ccccc2)c1N
i,nt,N#Cc1cccc(NC(=O)N2CCCC3(CCN(C(=O)c4ccco4)CC3)C2)c1
i,>57,O=C(NCc1ccco1)c1c(O)c2cccc3c2n(c1=O)CCC3
i,>57,CCCCc1cc(O)c(CCCC)c(O)c1
i,nt,CC(C)CN1CC[C@@]2(CCCN(C(=O)c3ccco3)C2)C1
i,>57,CC(=O)Nc1cccc(C(=O)N2CCN(Cc3ccccc3)CC2)c1
i,nt,CC(C)OC(=O)CCC(=O)Nc1nc2ccccc2s1
i,nt,COc1ccccc1-c1ccc2ncnc(NCc3cnc(C)cn3)c2c1
i,>57,O=C(Nc1ccc2c(c1)OCO2)N1CCN(c2ncccn2)CC1

Continued, starting with the last two of the part before.
TsaE inh,Bst PK mod,smiles
i,nt,COc1ccccc1-c1ccc2ncnc(NCc3cnc(C)cn3)c2c1
i,>57,O=C(Nc1ccc2c(c1)OCO2)N1CCN(c2ncccn2)CC1
i,nt,CC(=O)N1CCC[C@@]2(CCN(c3ncccn3)C2)C1
i,nt,C#CCOC(=O)CCCC(=O)Nc1ccccc1OC
i,nt,Cc1ccc(C)cc1
i,nt,CCCC(=O)Nc1ncnc2c1ncn2[C@@H]1O[C@H]2COP(=O)(O)O[C@@H]2[C@@H]1OC(=O)CCC
i,nt,CN1CCN(c2nc(-c3cccc(NS(C)(=O)=O)c3)nc3ccccc23)CC1
i,nt,CCOC(=O)CNC(=O)CSc1nnc(SCC(=O)NCC(=O)OCC)s1
i,nt,COCCCNC(=O)c1cc2c(-c3ccc(Cl)cc3)nn(C)c2s1
i,>57,CCOC(=O)C1CCCN(Cc2cc(Br)c(OC)cc2OC)C1 (stereo not drawn)
i,nt,C=CCNc1ncnc2c1cnn2-c1cccc(C)c1
i,>57,O=C1c2ccccc2C(=O)N1CC1=CCS(=O)(=O)C1
i,>57,Cc1cc(C)n(-c2cc(N3CCOCC3)nc(-c3ccccc3)n2)n1
i,>57,CCNC(=O)c1c(O)c2cccc3c2n(c1=O)CC3
i,i,COc1cccc(S(=O)(=O)Nc2ccc3sc(C)nc3c2)c1
i,>57,CC(C)(C)c1nc2ccccc2c2nnc(SCC(=O)NCc3ccco3)n12
i,nt,CC[C@H](NC(C)C)[C@H](O)c1ccc(O)c(O)c1
i,nt,CCN(CC)CCCNC(=O)c1cc(-c2ccc(O)cc2)on1
i,nt,CC(C)NC(=O)CCCc1ccccc1
i,>57,Cc1cc(NC(=O)CCC(=O)N(c2cccnc2)C(C(=O)NC2CCCC2)c2ccccc2F)no1 (stereo not drawn)
i,>57,COC(=O)[C@H](CCSC)NC(=O)Nc1ccc(OC)c(Cl)c1
i,>57,C=CCSc1nc2c(c(=N)n1CC=C)C1CCCC1S2 (stereo not drawn)
i,nt,Cc1cnc(CNc2nc(-c3ccoc3)nc3ccccc23)cn1
i,>57,O=C(OCC(=O)N1CCN(C(=O)c2ccco2)CC1)c1ccccc1OCc1ccccc1
i,nt,Cc1cc(C)n(-c2nnc(C)n2/N=C/c2ccccc2OCc2ccccc2Cl)n1
i,nt,O=C(Nc1ccncc1)C1CCCN(S(=O)(=O)c2cccc3cccnc23)C1 (stereo not drawn)
i,>57,COc1cc2nc(CC(C)C)n(NC(=O)c3ccccc3)c(=O)c2cc1OC
i,nt,COc1cccc(C(c2sc3nc(C)nn3c2O)N2CCN(C(=O)c3ccco3)CC2)c1 (stereo not drawn)
i,nt,O=C1CC(C2CCCO2)C(=O)N1Cc1ccccc1 (stereo not drawn)
nt,>26,CCCc1cc(NCCCCO)n2c(nc3ccccc32)c1C#N
i,nt,O=C(OCn1nnc2ccccc2c1=O)c1ccc(S(=O)(=O)N2CCOCC2)cc1
i,>57,CCC(c1nnnn1CCC(C)C)N1CCC(C(N)=O)CC1 (stereo not drawn)
i,nt,Cn1c(=O)c2c(nc(NC3CCCCC3)n2Cc2ccccc2)n(C)c1=O
i,>57,CCOC(=O)COc1c(OC)cc(Cl)cc1C1NC(=O)NC(C)=C1C(C)=O (stereo not drawn)
i,>57,CCOCCCn1c(=N)c(C(=O)Nc2cc(C)on2)cc2c(=O)n3ccccc3nc21
i,>57,CC(NS(=O)(=O)c1ccc(OCC(=O)N2CCOCC2)cc1)c1ccccc1 (stereo not drawn)
i,>57,COc1cc(C(=O)OC(C)CN2CCCC2)cc(OC)c1OC (stereo not drawn)
i,>57,COc1ccc(-c2noc(C3CCCN(C(=O)c4cccs4)C3)n2)cc1 (stereo not drawn)
i,>57,CCOC(=O)CSc1nc2c(c(=O)[nH]c(=O)n2C)n1CCCc1ccccc1
i,nt,COc1ccc(CN2CCCCC2C(=O)Nc2ccc(OC)c(OC)c2)cc1OC (stereo not drawn)
i,>57,Cc1csc(N(C)C(=O)CSc2nnc(COc3cccc4ccccc34)o2)n1
i,>57,CC(=O)Nc1cccc(OCC(=O)NS(=O)(=O)c2ccc(C)cc2)c1
i,>57,Cc1cc(C)n2nc(C(=O)Nc3ccccc3N3CCOCC3)nc2n1
i,>57,Cc1c(O)c(CN2CCCC2)cc2c3c(c(=O)oc12)CCC3
i,>57,CCC(=O)N1Cc2ccccc2-c2ccccc2C1=O
i,>57,CCCCN1C(=O)c2ccc(C(=O)Nc3c(N)n(CCCC)c(=O)n(C)c3=O)cc2C1=O
i,>57,O=C(CCc1nc(-c2ccccc2F)no1)NC1CCCCCC1
i,i,CCCn1c(SCc2cc(=O)oc3ccc4ccccc4c23)n[nH]c1=O
i,nt,CN(C)c1ncc2ncc(=O)n(C3CC3)c2n1
i,>57,COc1cccc(/C=N/n2c(C)c3c(C)nnc(C)c3c2C)c1O
i,>57,CC(=O)c1ccc(-n2nncc2C)cc1
i,>57,Cc1nc(NC(=O)c2cccnc2)ccc1Br

A run of entries of the results above:
TsaE inh,Bst PK mod,smiles
i,>57,COc1cc(C(=O)OC(C)CN2CCCC2)cc(OC)c1OC (stereo not drawn)
i,>57,COc1ccc(-c2noc(C3CCCN(C(=O)c4cccs4)C3)n2)cc1 (stereo not drawn)
i,>57,CCOC(=O)CSc1nc2c(c(=O)[nH]c(=O)n2C)n1CCCc1ccccc1
i,nt,COc1ccc(CN2CCCCC2C(=O)Nc2ccc(OC)c(OC)c2)cc1OC (stereo not drawn)
i,>57,Cc1csc(N(C)C(=O)CSc2nnc(COc3cccc4ccccc34)o2)n1
i,>57,CC(=O)Nc1cccc(OCC(=O)NS(=O)(=O)c2ccc(C)cc2)c1
i,>57,Cc1cc(C)n2nc(C(=O)Nc3ccccc3N3CCOCC3)nc2n1
i,>57,Cc1c(O)c(CN2CCCC2)cc2c3c(c(=O)oc12)CCC3
i,>57,CCC(=O)N1Cc2ccccc2-c2ccccc2C1=O
i,>57,CCCCN1C(=O)c2ccc(C(=O)Nc3c(N)n(CCCC)c(=O)n(C)c3=O)cc2C1=O
i,>57,O=C(CCc1nc(-c2ccccc2F)no1)NC1CCCCCC1
i,i,CCCn1c(SCc2cc(=O)oc3ccc4ccccc4c23)n[nH]c1=O
i,nt,CN(C)c1ncc2ncc(=O)n(C3CC3)c2n1
i,>57,COc1cccc(/C=N/n2c(C)c3c(C)nnc(C)c3c2C)c1O
i,>57,CC(=O)c1ccc(-n2nncc2C)cc1
i,>57,Cc1nc(NC(=O)c2cccnc2)ccc1Br

Next results.
TsaE inh,Bst PK mod,smiles
i,>57,O=C(CCCn1c(SCC(=O)c2ccc(O)c(O)c2)nc2ccccc2c1=O)NCC1CCCO1 (stereo not drawn)
i,11*,CCS(=O)(=O)NCCc1cc2c(OC)ccc(OC)c2[nH]c1=O
i,nt,COc1cc(OC)cc(C(=O)OCn2nnc3ccccc3c2=O)c1
i,nt,O=C(NCCn1ccc2ccccc21)c1ccc2c(c1)OCO2
i,nt,Cc1csc2nc(CCNS(=O)(=O)c3ccc4c(c3)OCCO4)cn12
i,>57,Cn1c(=O)cc(OCC(=O)N2CCN(c3cccc(C(F)(F)F)c3)CC2)c2ccccc21
i,>57,CCOC(=O)C1=C(C)NC(C)=C(C(=O)OCC)C1C(=O)OCC(=O)c1ccc2c(c1)OCCO2
i,>57,Cc1ccc(-c2nn(C)c(=O)c3ccccc23)cc1CO
i,>57,Cn1c(=O)[nH]c(=O)c2c1nc(NCCCO)n2Cc1ccc(F)cc1
i,>57,CCC1CCCCN1C(=O)CSc1nc2c([nH]c3ccccc32)c(=O)n1C (stereo not drawn)
i,>57,O=C(Cn1cccc1C(=O)c1ccccc1)NCCN1CCOCC1
i,2.5*,CC(=O)c1c(C)nc2ccccc2c1N
i,>57,CCOC(=O)c1ccc(NC(=O)COc2ccc(S(=O)(=O)NC(C)C)cc2)cc1
i,nt,CSc1cccc(NS(=O)(=O)c2ccccc2)c1
i,>57,Cc1cccc(OCC(=O)N(Cc2cccs2)C2CCS(=O)(=O)C2)c1C (stereo not drawn)
i,>57,Cc1ccc2nnc(Cl)n2n1
i,>57,CCn1c(SCC(=O)Nc2nc3c(s2)CCCC3)nnc1-c1ccccc1
i,>57,CC(C)CCOC(=O)C1[C@H]2C(=O)N(Cc3cccs3)C[C@]23C=C[C@H]1O3 (stereo partly drawn)
i,>57,CC(=O)NC1CC2CCCC(C1)N2S(=O)(=O)c1ccccc1 (stereo not drawn)
i,>57,CCn1c(SCC(=O)NCC2CCCO2)nnc1-c1c[nH]c2ccccc12 (stereo not drawn)
nt,>26,COc1ccc(CC(=O)OCN2C(=O)c3ccccc3C2=O)cc1
i,>57,CC(C)c1cc(C(=O)O)on1
i,>57,CCOc1ccc(NS(=O)(=O)c2ccc3c(c2)oc(=O)n3C)cc1
i,nt,Cc1cccc(C)c1[N+](=O)[O-]

From PubChem
